miR-21 reporter: raises the signal of a miR-21 reporter; HeLa miR-21 FLuc reporter, luciferase, 48 h; Potency, µM (top dose mostly 38.3 µM), inactives show top-dose reporter change, positive = more light; 340,000 tested, under 10 active; AID 2288; active = well fitted rising curve with a large enough effect; inconclusive = small, poorly fitted or top-dose-only effect; inactive = no such curve, though single readings can be large or run the other way;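 further: % of control where 0% means no effect; miR-21 action dims this reporter so a rising signal means less miR-21 action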
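HeLa cells endogenously expressing miR-21, stably carrying CMV-driven firefly luciferase with a downstream miR-21 binding site, 2000 cells/well. Titrations up to approximately 40 uM, 48 hours; luciferase luminescence read.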
An asterisk follows results filed as active; ? = inconclusive. The list is partial. The share of hits here may be higher or lower than overall.

Sample of the layout:
miR-21 reporter | compound
26.5% | CCc1cccc(C)c1NC(=O)c1cc(S(=O)(=O)N(C)Cc2ccccc2)ccc1F
-1.8% | COc1ccc(-n2c(=O)c3sc4ccccc4c3n(CC(=O)NC3CCCCC3)c2=O)cc1
1.4% | CCc1ccc(CN2CCc3nc(N4CCN(c5ccccc5F)CC4)ncc3C2)cc1

The whole of this part, from the start:
miR-21 reporter | compound
26.5% | CCc1cccc(C)c1NC(=O)c1cc(S(=O)(=O)N(C)Cc2ccccc2)ccc1F
-1.8% | COc1ccc(-n2c(=O)c3sc4ccccc4c3n(CC(=O)NC3CCCCC3)c2=O)cc1
1.4% | CCc1ccc(CN2CCc3nc(N4CCN(c5ccccc5F)CC4)ncc3C2)cc1
1.2% | Cc1ccc(C(=O)c2oc3ccccc3c2NC(=O)COc2ccccc2Cl)cc1
-4.3% | CCOC(=O)C1CCCN(S(=O)(=O)c2ccc3c(c2)CCN3C(=O)CC)C1 (stereo not given)
-2.4% | Cc1ccc2nc3c(cc(C(=O)NC4CCCCC4)c(=N)n3C(C)C)c(=O)n2c1
? | CCc1ccc(NS(=O)(=O)c2cc(-c3cnc(C4CC4)o3)ccc2C)cc1
2.1% | CCc1ccc(NS(=O)(=O)c2ccc3oc(=O)c4ncn(CC)c4c3c2)cc1
-19.6% | Cc1ccc(-c2nc3cc(Cl)ccc3o2)cc1NC(=O)COc1ccc(F)cc1
-3.9% | CCc1ccc(-c2cn3c(n2)sc2cc(C(=O)NC4CCCCC4)ccc23)cc1
1.4% | CCc1ccc(CN(Cc2ccco2)c2cnc(S(C)(=O)=O)nc2C(=O)Nc2c(C)cccc2C)cc1
0.8% | CCCCOC(=O)Cn1nnc2sc(-c3ccccc3)cc2c1=O
8.2% | Cc1nnc2c3ccccc3nc(N3CCN(c4cccc(Cl)c4)CC3)n12
-2.3% | Cc1cc2c(cc1S(=O)(=O)CCC(=O)Nc1ccc(OC(F)(F)F)cc1)OCC(=O)N2
8.7% | Cc1ccc(Cl)cc1N1CCN(C(=O)CCS(=O)(=O)c2cc(Br)cc3c2N(C(=O)C2CC2)CC3)CC1
-0.1% | CCc1cc2c(cc(C(=O)OC)n2Cc2nc(-c3ccc(C)cc3)oc2C)s1
24.6% | COc1ccc(CNC(=O)c2cc3cc(C)ccc3n2C)cc1
-48.0% | CN(Cc1ccccc1)C(=O)c1cccc(NC(=O)c2nsc3ccccc23)c1
1.1% | COc1ccccc1N1CCN(S(=O)(=O)CCNC(=O)COc2ccccc2F)CC1
-9.5% | COc1ccccc1C(=O)Nc1ccc2oc(-c3cccc(Cl)c3Cl)nc2c1
-3.0% | CCC(=O)N1c2ccccc2CC1C(=O)NCCCN1CCN(c2ccc(OC)cc2)CC1 (stereo not given)
-7.3% | CCn1c(SCC(=O)Nc2ccc(C)c(C)c2)nnc1-c1nonc1NC(C)=O
-8.0% | COc1ccc2c(c1)Cc1sc(NC(=O)c3ccccc3Br)nc1-2
-1.8% | COc1ccccc1NC(=O)c1cc(S(=O)(=O)N2CCN(c3ccccc3Cl)CC2)ccc1F
? | COc1ccc(NC(=O)c2c(C)oc3ccc(O)c(CN4CCCCCC4)c23)cc1Cl
-0.9% | CC(C)c1ccc(S(=O)(=O)c2nnn3c2nc(N2CCCC2)c2sccc23)cc1
-3.9% | COc1ccccc1NC(=O)c1cc2c(=O)oc3ccc(C)cc3c2s1
-9.1% | COc1ccc(OC)c(/C=C(\C#N)c2nc(-c3ccc(F)cc3)cs2)c1
-29.7% | Cc1c(Cl)cccc1-n1nnc(-c2nc(-c3ccc4c(c3)OCO4)no2)c1C
7.2% | COc1ccc(CNC(=O)C(CC(C)C)N2Cc3ccccc3C2=O)cc1 (stereo not given)
-5.1% | Cc1cccc(N2CCN(c3ccc(C(=O)O)cc3NC(=O)c3cccc(Cl)c3)CC2C)c1 (stereo not given)
-14.2% | COc1cccc(CNC(=O)c2sc3nc(C)cc(C)c3c2-n2cccc2)c1OC
5.1% | Cc1nnc(NC(=O)C(=O)c2cc(C)n(-c3ccc(C)c(C)c3)c2C)s1
-3.2% | COC(=O)c1ccc(Cl)cc1NC(=O)Nc1nnc(N(C)C2CCCCC2)s1
-0.8% | CC(C)NC(=O)C(c1ccccc1)N1Cc2ccccc2C1=O (stereo not given)
19.1% | Cn1c(=O)c2c(nc(SCC(=O)Nc3ccc(OC(F)(F)F)cc3)n2Cc2cccc(C(F)(F)F)c2)n(C)c1=O
-8.2% | COc1ccc(C(=O)Nc2cc3c(cc2N2CCCC2)n(C)c(=O)c(=O)n3C)cc1OC
12.2% | Cc1ccc2c(C)c(C(=O)NCC(c3ccc(Cl)cc3)N3CCOCC3)oc2c1 (stereo not given)
10.4% | CC(C)NC(=O)c1nn(C)c2c1CS(=O)(=O)c1ccccc1-2
-5.7% | O=C(CN1C(=O)c2cccnc2Sc2ccccc21)Nc1cc(F)ccc1F
0.6% | O=C(CN1C(=O)CSc2ccc(S(=O)(=O)N3CCCC3)cc21)NCc1ccc(Cl)cc1
-8.1% | CCOc1cccc2sc(N(Cc3cccnc3)C(C)=O)nc12
-1.3% | COc1ccc2nc(NC(=O)c3nc(SCc4ccc(F)cc4)ncc3Cl)sc2c1
-3.0% | CC1=C(c2ccc(C(C)C)cc2)S(=O)(=O)N=C1N1CCN(c2ccc(F)cc2)CC1
-9.4% | CCc1cccc(NC(=O)CN2C(=O)CCc3cc(S(=O)(=O)N4CCOCC4)ccc32)c1
-0.7% | O=C(OCc1ccccc1)c1ccc(-c2nnn(Cc3ccccc3F)n2)cc1
-2.6% | Cc1ccc(CNC(=O)CSc2nc3c(sc4ccccc43)c(=O)n2CCCC(=O)NCCO)cc1
21.9% | Cc1cc(F)ccc1NC(=O)C1CCCN(c2nnc(-n3c(C)ccc3C)s2)C1 (stereo not given)

4 compounds from above, sorted by length of the SMILES, rising.
miR-21 reporter | compound
-0.7% | O=C(OCc1ccccc1)c1ccc(-c2nnn(Cc3ccccc3F)n2)cc1
-1.3% | COc1ccc2nc(NC(=O)c3nc(SCc4ccc(F)cc4)ncc3Cl)sc2c1
-3.0% | CC1=C(c2ccc(C(C)C)cc2)S(=O)(=O)N=C1N1CCN(c2ccc(F)cc2)CC1
-2.6% | Cc1ccc(CNC(=O)CSc2nc3c(sc4ccccc43)c(=O)n2CCCC(=O)NCCO)cc1

The list continues:
miR-21 reporter | compound
2.4% | C#CCSc1nc(-c2ccccc2)cc(-c2ccccc2)c1C#N
-3.3% | COc1cccc(C(=O)Nc2ccc(NC(=O)c3ccc(C(C)(C)C)cc3)cc2)c1
-3.4% | CCCCCCSc1nnc2c(n1)OC(C)Nc1ccc(Br)cc1-2 (stereo not given)
4.1% | CC1=C(C(=O)Nc2ccccc2)C(c2ccc(C(=O)O)cc2)n2nc(SCC(=O)c3ccc(C)cc3)nc2N1 (stereo not given)
-4.4% | CCCCNC(=O)[C@@H](c1ccccc1)N1Cc2ccccc2C1=O
-0.3% | Cc1ccc(-c2onc(C)c2C)cc1S(=O)(=O)N1CCN(c2ccccc2F)CC1
-13.8% | O=C(NCc1nc(-c2ccccc2)no1)c1ccco1
-3.6% | O=c1cc(-c2ccccc2)nc(SCc2nc(-c3ccccc3Cl)no2)[nH]1
-17.6% | CCn1cc(S(=O)(=O)c2cc(C)cc(C)c2)c(=O)c2cc(F)c(N3CCOCC3)cc21
-5.7% | COc1ccc(-c2noc(-c3ccc(N4CCN(c5ccccc5OC)CC4)c([N+](=O)[O-])c3)n2)cc1
-1.2% | CC1CCN(c2nc3c(S(=O)(=O)c4cccc(Cl)c4)nnn3c3ccsc23)CC1
13.3% | COc1ccc(NC(=O)Cn2c(=O)oc3cc(S(=O)(=O)N4CCCCCC4)ccc32)cc1OC
-5.5% | Cc1ccc(N(CC(=O)NCCc2ccccc2)S(=O)(=O)N(C)C)cc1
18.1% | CSc1ccc(CCNC(=O)c2cc3cc(S(=O)(=O)N4CCCCC4)ccc3n2C)cc1
-6.2% | COCCOC(=O)C1=C(C)N=C2SCCC(=O)N2C1c1ccc(OCc2ccccc2)c(OC)c1 (stereo not given)
0.5% | COc1ccc(NC(=O)CN2C(=O)COc3ccc(S(=O)(=O)Nc4ccccc4)cc32)cc1
9.6% | COc1ccc(C)cc1NC(=O)CC(=O)Nc1ccc2nc3n(c(=O)c2c1)CCCCC3
19.2% | O=S(=O)(c1ccc(Br)s1)N1CCN(c2cccc(C(F)(F)F)c2)CC1
8.8% | Cc1cccc(Cn2c(SCc3ccc(C(=O)NCCc4ccccc4)cc3)nc3cccnc32)c1
-6.2% | CCOC(=O)N1CCc2c(sc3c2c(=O)n(-c2ccc(CC)cc2)c(=O)n3CC(=O)c2ccc(F)cc2)C1
0.2% | Cc1cc(=O)n(CC(=O)Nc2cccc([N+](=O)[O-])c2)c(-n2nc(C)cc2C)n1
-12.8% | O=C(Cn1ncc2c([nH]c3ccccc32)c1=O)Nc1cc(F)ccc1F
-30.5% | Cc1cccc(NC(=O)c2cccc(N3CCCS3(=O)=O)c2)c1
4.7% | CCCc1ccc(S(=O)(=O)N2CCC(c3nnnn3-c3ccc(OC)cc3)CC2)cc1
-22.5% | CCOc1ccc(NC(=O)c2c(NCc3sccc3C)sc3c2CCCCC3)cc1
8.0% | CCOC(=O)C1CCCN(S(=O)(=O)c2cc3c4c(c2)CC(=O)N4CCC3)C1 (stereo not given)
26.5% | CCOc1ccccc1NC(=O)C1CCN(S(=O)(=O)Cc2ccccc2)CC1
11.4% | COc1ccc(CCNC(=O)c2ccc3c(c2)N(Cc2ccccc2Cl)C(=O)c2ccccc2S3)cc1OC
-15.4% | Cc1cccc(-c2nc3c4ccccc4nc(N4CCN(c5cc(C)ccc5C)CC4)n3n2)c1
6.7% | Cc1nc2sc(C(=O)Nc3ccc(F)cc3)c(N)c2c(-c2ccc(Br)cc2)c1C(=O)Nc1ccc(Cl)cc1
-3.0% | CCOc1ccc(NC(=O)c2cc3c(s2)-c2ccccc2OC3)cc1
-6.6% | CN(C(=O)CSc1nc2c(c(=O)[nH]1)CCCC2)c1ccccc1
-2.3% | COc1ccc(OC)c(CCNC(=O)C2=C(C)C(=O)OC23CCC(C)CC3)c1 (stereo not given)
7.9% | CCCCNC(=O)Cn1ncc2c(C)n(Cc3cccc(Cl)c3)c(C)c2c1=O
-23.3% | COc1ccc(-c2nc3ccccc3o2)cc1NC(=O)COc1c(C)cc(Cl)cc1Cl
3.9% | CCOC(=O)c1c(NC(=O)c2ccc(S(=O)(=O)N3CCC(C)CC3)cc2)sc2c1CCN(C(C)C)C2
-2.0% | CCc1ccc(NC(=O)Cn2c(=O)c3cc(Cl)ccc3n3nncc23)cc1
-3.6% | COc1cc(C2C(C(=O)OC(C)C)=C(C)N=C3SCCC(=O)N32)ccc1OCc1ccccc1 (stereo not given)
-22.5% | COc1ccc(-c2n[nH]c3c2cnc2ccc(F)cc23)cc1
-2.4% | Fc1ccc(Cn2c(-c3cccc(Br)c3)nc3ccccc32)cc1

Of the compounds above, these contain a furan ring, fused or not.
miR-21 reporter | compound
1.2% | Cc1ccc(C(=O)c2oc3ccccc3c2NC(=O)COc2ccccc2Cl)cc1
1.4% | CCc1ccc(CN(Cc2ccco2)c2cnc(S(C)(=O)=O)nc2C(=O)Nc2c(C)cccc2C)cc1
? | COc1ccc(NC(=O)c2c(C)oc3ccc(O)c(CN4CCCCCC4)c23)cc1Cl
12.2% | Cc1ccc2c(C)c(C(=O)NCC(c3ccc(Cl)cc3)N3CCOCC3)oc2c1 (stereo not given)
-13.8% | O=C(NCc1nc(-c2ccccc2)no1)c1ccco1

The list continues:
miR-21 reporter | compound
-24.7% | CC1CCN(C(=O)C2COc3ccccc3C2)CC1 (stereo not given)
-0.7% | COc1ccc(Cn2c(CO)cnc2SCC(=O)NCc2ccco2)cc1
-15.3% | Cc1c2cnn(CC(=O)NCCc3ccccc3)c(=O)c2c(C)n1Cc1ccccc1Cl
-3.9% | Cc1ccc(OCC(=O)Nc2cccc3ccc(C)nc23)c(C)c1
3.5% | Cc1ccccc1C1=CCN(c2ncc(NC(=O)c3ccc(Cl)cc3)cc2C(=O)O)CC1
-53.7% | O=C(CSc1nccn1Cc1ccco1)Nc1ccc(OC(F)(F)F)cc1
4.8% | CCOc1ccccc1CNC(=O)CSc1nnc(C)c2c(C)n(-c3ccccc3)nc12
-27.5% | COc1cc(OC)c(N(C)C(=O)c2sc3nc4n(c(=O)c3c2C)CCCC4)cc1Cl
-11.4% | Cc1ccc(NC(=O)/C(C#N)=C/c2ccc(-c3ccc(Cl)c(C(=O)O)c3)o2)cc1C
1.9% | COc1ccc(NC(=O)c2oc3ccccc3c2NC(=O)c2cc(=O)c3cc(Cl)ccc3o2)cc1
-7.3% | COc1ccc(NC(=O)c2ccc3c(SCC(=O)O)c4c(nc3c2)CCCC4)cc1OC
28.5% | CCc1c(C)c2cc3c(c(C)c2oc1=O)OCN(CCc1ccccc1F)C3
0.1% | CCc1ccccc1NC(=O)Cn1c(=O)ccc2cc(S(=O)(=O)N3CCCC3)ccc21
-2.2% | CCc1ccccc1Nc1nc2cc(Cl)c(Cl)cc2nc1-n1nc(C)cc1C
-0.4% | CCOc1ccccc1NC(=O)c1c(NC(=O)c2cccc(C)c2)sc2c1CCC2
3.9% | CCOc1ccc(C(=O)Nc2c(C(=O)Nc3ccccc3F)oc3ccccc23)cc1OCC
3.1% | O=C(O)CSc1nc2ccc(NC(=O)COc3ccc(Cl)cc3)cc2s1
0.1% | CCCCOC(=O)c1ccc(NC(=O)C2(c3cccs3)CCOCC2)cc1
-13.0% | Cc1cc(C)cc(Nc2ncnc3onc(-c4ccc(F)cc4)c23)c1
-5.1% | Cc1ccc(CN2C(=O)c3oc4ccc(C)cc4c(=O)c3C2c2ccc(O)cc2)cc1 (stereo not given)
18.4% | CCOc1ccc(NC(=O)c2ccc3c(c2)c(C)c(C)n3Cc2ccc(F)cc2)cc1

Screens: PubChem, National Center for Advancing Translational Sciences (NCATS)
